Screening data: PubChem BioAssay, National Center for Advancing Translational Sciences (NCATS)
Sfp inh: blocks B. subtilis Sfp PPTase activity. Q9F4F7. Biochemical Sfp PPTase activity, qHTS. Potency, µM, for inactives: max response, negative = inhibition, most hits filed as inhibitors. 3.5% of 310,000 active. AID 1490; active = well fitted inhibition curve with a large enough effect; inconclusive = small, poorly fitted or top-dose-only effect, or another doubt; inactive = no such curve, though single readings can be large or run the other way;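 also: the enzyme is Sfp with the accession as filed and its product quenches rhodamine fluorescence; potency is read from the fitted curve at half-maximal effect; 0% = enzyme reaction without inhibitor and -100% = no enzyme wells; top concentration of the series not given in the record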
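After 15 min at room temperature with compound, 15 nM Sfp received 5 uM rhodamine-CoA plus 12.5 uM BHQ-2-ybbR (50 mM Hepes pH 7.6, 10 mM MgCl2). Rate came from the fluorescence difference over 30 min, ex 525/em 598 nm.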
PINK1 expr mod: modulators of PINK1 expression. PINK1 immunofluorescence, high-content cytometry, 24 h. Potency, µM (doses to about 76.6 µM), inactives show at the top dose activation (PINK1 increase), usual class: activators. 0.2% of 410,000 active. AID 624263; active = well fitted activation curve with a large enough effect; inconclusive = small, poorly fitted or top-dose-only effect; inactive = flat fitted curve, though single readings scatter; cell line not stated here;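 also: potency is read from the fitted curve at half-maximal effect; % of control where 0% means no effect; nearly all actives have a fitted effect of over 65% in size; a mitochondrial uncoupler was the plate control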
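PINK1 protein, normally rapidly degraded, was detected by immunofluorescence after 24 hour compound treatment of a stable cell line. Titration data (5 concentrations) came from laser-scanning cytometry, with CCCP-treated wells as controls.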
D2 ag: activates the human D2 dopamine receptor. DiscoveRx PathHunter D2 beta-arrestin, luminescence, 90 min; 100% = 57 uM dopamine signal. activation, % (concentration not given with the values). 0.084% of 360,000 active; in the data active = activation above about 40%; inconclusive = about 15% to 40%; inactive = below about 15%; also: compound concentration not given in the record; the text of the record calls up to 30% inactive
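Agonist mode: compounds alone added to overnight-plated D2 PathHunter cells for 90 min at 37 C, with 57 uM final dopamine (EC100) defining full response. Beta-arrestin recruitment detected by chemiluminescent reagent, read after 1 h at ambient temperature.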
D2 PAM: potentiates the human D2 dopamine receptor allosterically. P14416. 0.23% of 360,000 active. potentiation, % (test concentration not listed). DiscoveRx D2 beta-arrestin cells, luminescence, 90 min; 100% = 57 uM dopamine signal; active = potentiation of 50% or more; inconclusive = 30% to 50%; inactive = 30% or less;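 also: compound concentration not given in the record; tested on top of an EC20 dose of dopamine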
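D2 cells co-treated with compound plus 50 nM dopamine (EC20) for 90 min at 37 deg C to detect potentiation. Beta-arrestin recruitment was read as enzyme-fragment luminescence after 1 h at ambient temperature. Full response was set by 57 uM dopamine.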
CtBP-E1A blk: inhibitors of CtBP/E1A interaction | AlphaScreen GST-E1A/His-CtBP binding, 1536-well; active compounds read low; control for the full effect not named in the record | activity change, % (test concentration not listed) | 0.49% of 340,000 active; in the data active means activity change below about -65%; inconclusive means about -30% to -65%; inactive means above about -30%; also: % is scaled to controls: 0 for no effect and ±100 for the full control effect
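Protein mix (5X: 125 nM each GST-E1A, His-CtBP) was incubated with pinned compound 2 h at 37 deg C in dark, in 50 mM Tris pH 8.0 buffer with 300 mM NaCl. Glutathione donor and nickel acceptor beads followed; AlphaScreen signal read after 1 h.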
TRPV1 potentiator: human TRPV1 potentiation | Q8NER1 | TRPV1-expressing cells, Fluo-8 calcium influx, capsaicin EC20 potentiation; host cell line not named in the record; control for the full effect not named in the record | potentiation, % at 8.33 µM | 0.02% of 320,000 active; active means potentiation above 80%; inconclusive means 30% to 80%; inactive means below 30%; also: 0% is about no effect
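TRPV1-expressing cells were cultured overnight at 35.5C and loaded with Fluo-8 calcium dye for 40 to 90 min at room temperature. After a 10 s baseline, compound was added and calcium influx was read kinetically for 3 min (ex 480/em 520 nm).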
Six1-Eya2 inh: blocks human Six1 binding to Eya2; activity change, % (no concentration beside the values); AID 651725; 0.56% of 360,000 active; AlphaScreen GST-Six1/His-Eya2 binding, biochemical; active compounds read low; control for the full effect not named in the record; Q15475+O00167; in the data active = activity change below about -65%; inconclusive = about -30% to -65%; inactive = above about -30%; also: % is scaled to controls: 0 for no effect and ±100 for the full control effect
Target sequence (O00167 whole entry, looked up): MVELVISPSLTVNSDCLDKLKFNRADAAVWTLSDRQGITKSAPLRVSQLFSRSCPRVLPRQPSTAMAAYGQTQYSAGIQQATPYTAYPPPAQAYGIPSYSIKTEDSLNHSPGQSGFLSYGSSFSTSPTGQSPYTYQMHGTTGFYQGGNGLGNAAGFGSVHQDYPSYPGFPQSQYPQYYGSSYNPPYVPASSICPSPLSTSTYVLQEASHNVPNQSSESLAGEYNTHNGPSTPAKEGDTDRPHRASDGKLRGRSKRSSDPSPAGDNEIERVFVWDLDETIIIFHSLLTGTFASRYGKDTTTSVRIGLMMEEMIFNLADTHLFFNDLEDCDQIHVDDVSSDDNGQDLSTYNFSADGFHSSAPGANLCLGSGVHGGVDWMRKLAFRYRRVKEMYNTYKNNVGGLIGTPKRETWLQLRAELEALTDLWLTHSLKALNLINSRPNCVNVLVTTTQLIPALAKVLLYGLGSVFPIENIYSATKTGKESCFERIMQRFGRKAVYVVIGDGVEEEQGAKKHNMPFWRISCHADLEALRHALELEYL
Target sequence (Q15475 whole entry, looked up): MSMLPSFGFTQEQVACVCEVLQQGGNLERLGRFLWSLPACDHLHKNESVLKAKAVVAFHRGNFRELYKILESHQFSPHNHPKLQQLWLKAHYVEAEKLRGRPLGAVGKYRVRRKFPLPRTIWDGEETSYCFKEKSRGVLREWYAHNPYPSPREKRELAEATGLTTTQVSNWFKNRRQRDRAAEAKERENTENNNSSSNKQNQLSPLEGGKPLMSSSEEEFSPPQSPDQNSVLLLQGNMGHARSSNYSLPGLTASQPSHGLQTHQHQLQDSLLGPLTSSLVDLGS
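AlphaScreen luminescence read after one hour at 37 °C in darkness. Pin-transferred compounds met GST-Six1 and His-Eya2 protein (5X stock 250 nM/500 nM) plus glutathione donor and Ni-chelate acceptor beads (5X, 50 ug/mL).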
* hit, by the source's call; & = joins results of further samples; [ ] = dose if it differs, or a comment.

How did O=C(Nc1c(C(=O)N2CCN(c3ccccn3)CC2)oc2ccccc12)c1ccc([N+](=O)[O-])cc1 do in these assays?
Sfp inh: -20%; PINK1 expr mod: 3.2%; D2 ag: 4.5; D2 PAM: -8; CtBP-E1A blk: 3; TRPV1 potentiator: -5; Six1-Eya2 inh: -3

Results for COCC(=O)N1CCC(Oc2ccc(C(=O)NC(C)c3nc(C)sc3C)cc2)CC1 (stereo not drawn) ?
Sfp inh: 13%; PINK1 expr mod: -0.3%; D2 ag: -5.8; D2 PAM: -19; CtBP-E1A blk: 8; TRPV1 potentiator: -9; Six1-Eya2 inh: 2

How did Cc1cccc(C)c1NC(=O)CCCN1CC(C)OC(C)C1 (stereo not drawn) do in these assays?
Sfp inh: 15%; PINK1 expr mod: -1.3%; D2 ag: -2.2; D2 PAM: -4; CtBP-E1A blk: 5; TRPV1 potentiator: -19; Six1-Eya2 inh: 6

What do the screens show for `CCS(=O)(=O)N1CCN(c2ccc([N+](=O)[O-])c(NCC3CCCO3)c2)CC1` (stereo not drawn)?
Sfp inh: 13%; PINK1 expr mod: 3.9%; D2 ag: -6.2; D2 PAM: -4; CtBP-E1A blk: -3; TRPV1 potentiator: 3; Six1-Eya2 inh: 0

How did Cc1n[nH]c(C)c1S(=O)(=O)N1CCCC(C(=O)N2CCN(c3ccc(Cl)cc3)CC2)C1 (stereo not drawn) do in these assays?
Sfp inh: 15%; PINK1 expr mod: -0.1%; D2 ag: -3.8; D2 PAM: inconclusive; CtBP-E1A blk: -2; TRPV1 potentiator: -9; Six1-Eya2 inh: -6

Results for CC(=O)Nc1ccc(/C(C)=N/Nc2nc(Nc3ccccc3)nc(N3CCOCC3)n2)cc1 ?
Sfp inh: 15%; PINK1 expr mod: 1.6%; D2 ag: 2.0; D2 PAM: -1; CtBP-E1A blk: 9; TRPV1 potentiator: 23; Six1-Eya2 inh: -1

How did O=C(O)[C@H](O)[C@@H](O)C(=O)O do in these assays?
PINK1 expr mod: 0.5%; D2 ag: -4.9; D2 PAM: -15; CtBP-E1A blk: -14; TRPV1 potentiator: 2; Six1-Eya2 inh: 6

What do the screens show for `CN(Cc1ccccc1)C(=O)[C@@H]1CCCN1C(=O)[C@@H]1CCCN1C(=O)c1c(F)cccc1F`?
PINK1 expr mod: -0.9%; CtBP-E1A blk: 8; Six1-Eya2 inh: 7

Results for Cn1c2ccccc2c(=O)c2cc(C#CC3(O)CCCCC3)ccc21 ?
Sfp inh: 5%; PINK1 expr mod: 4.5%; D2 ag: -0.2; D2 PAM: -9; CtBP-E1A blk: 7; TRPV1 potentiator: inconclusive; Six1-Eya2 inh: 9

How did CC(C)C[C@@H]1COc2cc(N3CCC[C@H]3CO)ccc2S(=O)(=O)N1 do in these assays?
PINK1 expr mod: 0.5%; CtBP-E1A blk: 0; Six1-Eya2 inh: 1

What do the screens show for `CCOC(=O)c1cc(-c2nnc(-c3ccc(Oc4ccccc4)cc3)o2)c(C)nc1C`?
Sfp inh: -7%; PINK1 expr mod: 2.3%; D2 ag: -2.1; D2 PAM: -2; CtBP-E1A blk: 3; TRPV1 potentiator: -2; Six1-Eya2 inh: 0

Results for N#Cc1ccc(C(=O)Nc2ccc3ccccc3c2)cc1 ?
Sfp inh: 8%; PINK1 expr mod: 7.3%; D2 ag: -0.3; D2 PAM: -8; CtBP-E1A blk: 3; TRPV1 potentiator: -3; Six1-Eya2 inh: 8

How did CCn1c(-c2c(Cl)c(C)nn2C)n[nH]c1=S do in these assays?
Sfp inh: -13%; PINK1 expr mod: -1.5%; D2 ag: -3.6; D2 PAM: -2; CtBP-E1A blk: 16; TRPV1 potentiator: 5; Six1-Eya2 inh: 8

Results for CCCc1cc(C(=O)N2CCC(N3CCC(C(=O)NC(C)C)CC3)CC2)n(C)n1 ?
Sfp inh: 10%; PINK1 expr mod: -1.0%; D2 ag: -4.2; D2 PAM: -2; CtBP-E1A blk: 1; TRPV1 potentiator: 16; Six1-Eya2 inh: 5

Results for Cc1cc(NCc2ccccn2)n2nc(C)c(-c3ccccc3)c2n1 ?
Sfp inh: -1%; PINK1 expr mod: 6.5%; D2 ag: -2.6; D2 PAM: -9; CtBP-E1A blk: -8; TRPV1 potentiator: -3; Six1-Eya2 inh: -6

Results for COc1ccc(Cc2nc3ccc(C(=O)NC4CCOC4)cc3o2)cc1OC (stereo not drawn) ?
PINK1 expr mod: -0.3%; D2 ag: -3.7; D2 PAM: -7; CtBP-E1A blk: -9; Six1-Eya2 inh: -2

How did O=C(Nc1nc2cc3c(cc2s1)OCCO3)c1ccco1 do in these assays?
Sfp inh: -4%; PINK1 expr mod: -1.9%; D2 ag: 2.4; D2 PAM: -3; CtBP-E1A blk: -2; TRPV1 potentiator: -14; Six1-Eya2 inh: -22

What do the screens show for `CCN(CCO)Cc1csc2ccc(Cl)cc12`?
Sfp inh: 0%; PINK1 expr mod: 9.0%; D2 ag: -5.4; D2 PAM: 1; CtBP-E1A blk: 4; TRPV1 potentiator: 6; Six1-Eya2 inh: 3

How did CCOc1ccccc1CN1CCNC(=O)C1CC(=O)NCc1cc(C)n(C)n1 (stereo not drawn) do in these assays?
Sfp inh: 7%; PINK1 expr mod: -0.5%; D2 ag: -5.2; D2 PAM: -13; CtBP-E1A blk: 8; TRPV1 potentiator: 8; Six1-Eya2 inh: 5

Results for CNc1nc(OCCNC(=O)Nc2ccccc2)nc(N2CCOCC2)n1 ?
Sfp inh: 16%; PINK1 expr mod: 0.4%[38.3 µM]; D2 ag: -2.5; D2 PAM: -4; CtBP-E1A blk: 5; TRPV1 potentiator: -17; Six1-Eya2 inh: 3

What do the screens show for `O=C(COC(=O)c1cccnc1Cl)c1cccc(Cl)c1`?
Sfp inh: 6%; D2 ag: -4.2; D2 PAM: -27; CtBP-E1A blk: -2; TRPV1 potentiator: 7; Six1-Eya2 inh: 1

Results for O=C(O)c1cnc(-c2ccccc2)nc1Sc1cccc(Cl)c1 ?
Sfp inh: -2%; PINK1 expr mod: -3.5%; D2 ag: -2.0; D2 PAM: 0; CtBP-E1A blk: -2; TRPV1 potentiator: 12; Six1-Eya2 inh: 5

Results for COC(=O)Cc1nc2c(N)nc(N)nc2[nH]c1=O ?
PINK1 expr mod: -0.7%; D2 ag: -2.5; D2 PAM: 1; CtBP-E1A blk: -20; Six1-Eya2 inh: -18

What do the screens show for `Cc1ccc(CNC(=O)COC(=O)c2ccc(Br)cc2)cc1`?
Sfp inh: -9%; PINK1 expr mod: -2.1%; D2 ag: -2.2; D2 PAM: -13; CtBP-E1A blk: 21; TRPV1 potentiator: -9; Six1-Eya2 inh: 0

Results for CCCCNC(=O)C1(C)CCC(=O)N1c1cc(C(C)(C)C)nn1C (stereo not drawn) ?
PINK1 expr mod: -0.3%; D2 ag: -2.3; D2 PAM: -1; CtBP-E1A blk: 7; Six1-Eya2 inh: 1

Results for CC1CN(C(=O)c2cc3cc(Cl)ccc3[nH]2)CC(C)O1 (stereo not drawn) ?
Sfp inh: 5%; PINK1 expr mod: 1.0%; D2 ag: 1.3; D2 PAM: -14; TRPV1 potentiator: -3; Six1-Eya2 inh: -2

How did CCN(C(=O)COC(=O)c1c(NC(C)=O)sc(C)c1C)C1CCS(=O)(=O)C1 (stereo not drawn) do in these assays?
Sfp inh: -14%; PINK1 expr mod: 2.1%; D2 ag: -1.5; D2 PAM: 7; CtBP-E1A blk: 10; TRPV1 potentiator: -10; Six1-Eya2 inh: 8

How did Cc1nc(NCCc2ccccc2F)c(C#N)c(C)c1[N+](=O)[O-] do in these assays?
Sfp inh: 18%; PINK1 expr mod: -2.1%; D2 ag: 0.0; D2 PAM: -1; CtBP-E1A blk: -3; TRPV1 potentiator: 4; Six1-Eya2 inh: -1

What do the screens show for `CCCc1cc(=O)oc2cc(C)cc(OC(C)C(=O)NCc3ccncc3)c12` (stereo not drawn)?
Sfp inh: 23%; PINK1 expr mod: 0.5%; D2 ag: 4.3; D2 PAM: 2; CtBP-E1A blk: 3; TRPV1 potentiator: 9; Six1-Eya2 inh: -3

What do the screens show for `Cc1ccc(NC(=O)CN(C)C(=O)CCCN2C(=O)c3ccccc3C2=O)cc1`?
Sfp inh: 10%; PINK1 expr mod: -1.4%; D2 ag: -3.8; D2 PAM: 16; CtBP-E1A blk: 3; TRPV1 potentiator: -7; Six1-Eya2 inh: -3

Results for Clc1ccc(/C=N/NC(=Nc2ccccc2)c2ccccn2)c(Cl)c1 ?
Sfp inh: 0%; PINK1 expr mod: 25%; D2 ag: -3.3; D2 PAM: -17; CtBP-E1A blk: -29; TRPV1 potentiator: -1; Six1-Eya2 inh: inconclusive

Results for O=C(Nc1ccccc1Cl)N1CCSc2ccccc21 ?
Sfp inh: 15%; PINK1 expr mod: 1.3%&1.1%; D2 ag: -2.4; D2 PAM: -4; CtBP-E1A blk: 1; TRPV1 potentiator: -2; Six1-Eya2 inh: -7

What do the screens show for `CCCC(CCC)C(=O)Oc1cc(C)[nH]c(=O)c1[N+](=O)[O-]`?
Sfp inh: 18%; PINK1 expr mod: 0.4%; D2 ag: 0.7; D2 PAM: 1; CtBP-E1A blk: 7; TRPV1 potentiator: -1; Six1-Eya2 inh: 5

What do the screens show for `CN(C)c1ncnc2c1ccn2C1OC(CO)C(O)C1O` (stereo not drawn)?
PINK1 expr mod: -4.5%; D2 ag: 3.1; D2 PAM: -8; CtBP-E1A blk: -9; Six1-Eya2 inh: 9

What do the screens show for `O=C(CN1CCOc2ccccc21)NCc1ccc(F)cc1`?
Sfp inh: 8%; PINK1 expr mod: 1.6%; D2 ag: 11; D2 PAM: 3; CtBP-E1A blk: 1; TRPV1 potentiator: 26; Six1-Eya2 inh: -4

Entries shown so far with a cyano group:
Results for N#Cc1ccc(C(=O)Nc2ccc3ccccc3c2)cc1 ?
Sfp inh: 8%; PINK1 expr mod: 7.3%; D2 ag: -0.3; D2 PAM: -8; CtBP-E1A blk: 3; TRPV1 potentiator: -3; Six1-Eya2 inh: 8

How did Cc1nc(NCCc2ccccc2F)c(C#N)c(C)c1[N+](=O)[O-] do in these assays?
Sfp inh: 18%; PINK1 expr mod: -2.1%; D2 ag: 0.0; D2 PAM: -1; CtBP-E1A blk: -3; TRPV1 potentiator: 4; Six1-Eya2 inh: -1
